NPYLR7 agonist – activates Aedes aegypti NPYLR7 receptor; activation, % at 10 µM; HEK293T NPYLR7/Galpha15, GCaMP6s calcium fluorescence; actives 0.15% (n = 270,000); in the data active means activation above about 40%;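 further: 0% = vehicle and 100% = reference agonist at the receptor; some compounds past the cut are filed as inactive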
NPYLR7 agonist max-min – recorded beside NPYLR7 agonist, whose call it bears; activation, %; measured here: Max-Min RFU normalised activation; some inactives read as strong as hits;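 span of the calcium signal over five minutes; 0% = vehicle and 100% = native peptide agonist; compound fluorescence can raise it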
Active calls of the source: *; & = joins results of further samples.

COc1ccc(C(=O)N2CCN(c3nc(C)nc(C)c3Cc3ccccc3Cl)CC2)cc1
- NPYLR7 agonist: -6
- NPYLR7 agonist max-min: 1
Oc1[nH]c2ccccc2c1N=Nc1nc(Nc2ccccc2)nc(Nc2ccccc2)n1
- NPYLR7 agonist: 0
- NPYLR7 agonist max-min: -5
O=C(NCCc1nnc2ccc(NCCO)nn12)c1ccccc1
- NPYLR7 agonist: -1
- NPYLR7 agonist max-min: -6
Fc1ccccc1Cn1cccc1C1=NCCO1
- NPYLR7 agonist: 9
- NPYLR7 agonist max-min: 1
Cc1cc2nc(N3CCc4ccccc43)c3ccccc3n2n1
- NPYLR7 agonist: 4
- NPYLR7 agonist max-min: 7
CC(C)N1CCN(C(=O)c2nnc(N3CCN(c4ccc(F)cc4)CC3)c3ccccc23)CC1
- NPYLR7 agonist: 1
- NPYLR7 agonist max-min: -2
O=C(O)c1ccccc1C1CCN(C(=O)CCc2cccnc2)C1 (stereo not drawn)
- NPYLR7 agonist: 6
- NPYLR7 agonist max-min: 4
CN(CC(=O)NC(C)(C)C)C(=O)c1cc2cc(Br)ccc2[nH]1
- NPYLR7 agonist: 5
- NPYLR7 agonist max-min: 4
Cc1cnc(CN2CCC(Cc3nn(C)c(=O)n3-c3ccccc3)CC2)[nH]1
- NPYLR7 agonist: 21
- NPYLR7 agonist max-min: 7
COc1ncc(C(=O)NCc2cccnc2Oc2ccccc2F)cn1
- NPYLR7 agonist: 1
- NPYLR7 agonist max-min: 0

O=C(NCc1cccc(COCc2ccco2)c1)c1ccccc1
- NPYLR7 agonist: 9
- NPYLR7 agonist max-min: 4
Clc1ccc2c(c1)C(N1CCNCC1)=Nc1ccccc1O2
- NPYLR7 agonist: -3&-4&6&-11
- NPYLR7 agonist max-min: -8&-8&-14&-14
N#CC1(NC(=O)C=C2CCCCC2)CCCC1
- NPYLR7 agonist: 3
- NPYLR7 agonist max-min: 3
CCOC(=O)C1CNC(=O)NC1=CSC1CCCc2ccccc21 (stereo not drawn)
- NPYLR7 agonist: 0
- NPYLR7 agonist max-min: 0
NC(=O)C1CCCN(CCn2cnnc2)C1 (stereo not drawn)
- NPYLR7 agonist: 1
- NPYLR7 agonist max-min: -3
NC1(C(=O)O)CCc2cc(C(=O)O)ccc21 (stereo not drawn)
- NPYLR7 agonist: 6
- NPYLR7 agonist max-min: -10
COc1ccc(NC(=O)Cn2c3ccccc3c3ncn(Cc4ccccc4)c(=O)c32)cc1
- NPYLR7 agonist: 2
- NPYLR7 agonist max-min: -2
Cc1cccc(C)c1NS(=O)(=O)c1ccc(C(=O)O)cc1
- NPYLR7 agonist: 3
- NPYLR7 agonist max-min: 1
c1ccc2oc(COc3ccc4c(C5CC5)noc4n3)cc2c1
- NPYLR7 agonist: 3
- NPYLR7 agonist max-min: 0
O=C1OC(c2ccccc2)=NC1=Cc1ccccc1
- NPYLR7 agonist: 2
- NPYLR7 agonist max-min: 9

CCCn1c(CN2CCCCC2)nc2c1c(=O)n(C)c(=O)n2C
- NPYLR7 agonist: 4
- NPYLR7 agonist max-min: -2
O=C(c1cccc(CC2CCNCC2)c1)N1CCC(Nc2ncccn2)CC1
- NPYLR7 agonist: 8
- NPYLR7 agonist max-min: 7
COc1ccc(N2CCN(c3cc(-c4ccccc4)nc(SCc4ccc(C(=O)NCc5ccc6c(c5)OCO6)cc4)n3)CC2)cc1
- NPYLR7 agonist: 4
- NPYLR7 agonist max-min: 9
CCCn1ncc(CN2CCCC(CCC(=O)NCc3ccc(OC)cc3OC)C2)c1C (stereo not drawn)
- NPYLR7 agonist: -1
- NPYLR7 agonist max-min: -5
NC(=O)c1cncc(N2CCc3onc(-c4cccc(F)c4)c3C2)n1
- NPYLR7 agonist: 19
- NPYLR7 agonist max-min: 13
CCn1cnnc1CCNC(=O)c1ccc2[nH]c3c(c2c1)CCCC3
- NPYLR7 agonist: 0
- NPYLR7 agonist max-min: -2
O=C(CSc1cn[nH]n1)N(c1ccccc1)c1ccccc1
- NPYLR7 agonist: -9
- NPYLR7 agonist max-min: -15
COC(=O)c1sccc1S(=O)(=O)N1CCCc2c(F)cc(F)cc21
- NPYLR7 agonist: 2
- NPYLR7 agonist max-min: 0
CCN(C)c1c(C)nc2c(OCc3cc(Cl)cc(Cl)c3)cccn12
- NPYLR7 agonist: 39
- NPYLR7 agonist max-min: 26
O=C(O)c1ccc(NS(=O)(=O)c2cc(C(=O)Nc3ccccc3)ccc2Cl)cc1
- NPYLR7 agonist: -11
- NPYLR7 agonist max-min: -19

CNc1cc(C)nc(N2[C@@H]3CC[C@H]2CN(C)C(=O)C3)n1
- NPYLR7 agonist: 4
- NPYLR7 agonist max-min: 1
C#CCOCC(O)CN(CCOC)Cc1ccc(F)cc1 (stereo not drawn)
- NPYLR7 agonist: 29
- NPYLR7 agonist max-min: 33
Cc1csc(SCc2cc(=O)c(OC(=O)c3cccc4ccccc34)co2)n1
- NPYLR7 agonist: -4
- NPYLR7 agonist max-min: -9
O=C(NC(c1ccccc1)c1ccsc1)C1CCN(CCOc2ccc(Cl)cc2Cl)CC1 (stereo not drawn)
- NPYLR7 agonist: 11
- NPYLR7 agonist max-min: 0
CCCC(=O)C1=C(c2cccc(OC)c2)N(C(=O)CCC)n2c(C)nnc2S1
- NPYLR7 agonist: 3
- NPYLR7 agonist max-min: 0
OCC1CCN(C2CCCN(Cc3cccc4ccccc34)C2)CC1 (stereo not drawn)
- NPYLR7 agonist: 4
- NPYLR7 agonist max-min: 2
Cc1c(C(=O)NC(C)c2ccccc2)cnn1-c1cc(-c2nc(C(C)(C)C)no2)ccn1 (stereo not drawn)
- NPYLR7 agonist: -6
- NPYLR7 agonist max-min: -7
CCOc1ccccc1-n1nnc(C(=O)N(C)C2CCS(=O)(=O)C2)c1C (stereo not drawn)
- NPYLR7 agonist: 2
- NPYLR7 agonist max-min: 4
O=C(N=Nc1c(O)[nH]c2ccccc12)c1ccco1
- NPYLR7 agonist: 3
- NPYLR7 agonist max-min: 11
CCN(C)CC1CCN(c2nc3c(Cl)c(C)nn3c3ccccc23)C1 (stereo not drawn)
- NPYLR7 agonist: 3
- NPYLR7 agonist max-min: 0

3 structures already listed, sorted by number of heavy atoms, falling:
CCN(C)CC1CCN(c2nc3c(Cl)c(C)nn3c3ccccc23)C1 (stereo not drawn)
- NPYLR7 agonist: 3
- NPYLR7 agonist max-min: 0
C#CCOCC(O)CN(CCOC)Cc1ccc(F)cc1 (stereo not drawn)
- NPYLR7 agonist: 29
- NPYLR7 agonist max-min: 33
CNc1cc(C)nc(N2[C@@H]3CC[C@H]2CN(C)C(=O)C3)n1
- NPYLR7 agonist: 4
- NPYLR7 agonist max-min: 1

Additional entries follow.
Order of results: NPYLR7 agonist | NPYLR7 agonist max-min
- COCC(=O)N1CCCN(C(=O)CC2C=CCC2)CC1 (stereo not drawn)
    4 | 4
- CCCc1sc(C(=O)NC2CCS(=O)(=O)C2)cc1CC (stereo not drawn)
    0 | -1
- COC(=O)C(c1ccccc1Cl)N1CCOC(c2ccc(Cl)cc2)C1 (stereo not drawn)
    11 | 8
- CCc1ccc(S(=O)(=O)NCC2(c3ccccc3)CCOCC2)s1
    4 | 1
- Cc1ccc2nc(NC(=O)CSc3nc(C)cc(=O)[nH]3)sc2c1
    -17 | -21
- N#CSc1ccc(NS(=O)(=O)c2ccc(Cl)cc2)c(Cl)c1
    -7 | -12
- CC(C)COC(=NCc1ccccc1)NC(=O)c1ccc2c(c1)OCO2
    -6 | -7
- CCOC(=O)CSc1nnc(N)s1
    -5 | -11
- CCCN(CCC(=O)N1CCCC1)c1nc(-c2cccc(Br)c2)nc2ccccc12
    -2 | 10
- O=C(Nc1cccc(Cl)c1)C(C1CCCC1)N1CCN(C(=O)OCc2ccccc2)CC1 (stereo not drawn)
    3 | 8
- C[C@H](NC(=O)Nc1ncn[nH]1)c1ccccc1
    -5 | -8
- Cc1ccccc1C1CC(c2ccc(F)cc2)=NN1C(=O)CN(C)C1CCN(C)CC1 (stereo not drawn)
    -7 | -3
- Nc1cc(-c2ccc(Cl)c(Cl)c2)nn1-c1ccc(C(=O)N2CCC(n3c(=O)[nH]c4ccccc43)CC2)cc1
    0 | -4
- Cc1cc(C(=O)CSc2ncnc3sccc23)c(C)n1CC1COc2ccccc2O1 (stereo not drawn)
    -10 | -15
- Cc1cc(CC(C)NC(=O)/C=C/c2ccccc2)n[nH]1 (stereo not drawn)
    -8 | -8
- O=P(c1ccccc1)(c1ccccc1)C(O)c1cccnc1 (stereo not drawn)
    -2 | -3
- O=C1CC(N(C(=O)Cc2csc(-c3ccccc3)n2)C2CC2)C(=O)N1 (stereo not drawn)
    15 | 9
- CN1CC[C@@]2(C1)[C@H](O)CN(c1ccccc1)S2(=O)=O
    7 | 11
- CCC(CO)NCc1cc(C)n(-c2cccc3ccccc23)c1C (stereo not drawn)
    7 | 3
- CCOC(=O)Nc1cc(C)nn1-c1nc(-c2ccccc2)cs1
    -6 | -12
- Cc1cc(Cl)ccc1N=Cc1nc(-c2ccccc2)oc1O
    -5 | -8
- O=C(Nc1cccc(Br)c1)Nc1ccc(N2CCCC2)c(C(=O)NC2CC2)c1
    0 | 12
- COc1ccccc1CCNC(=O)c1ccccc1N1CCC(NC(=O)C2CCC2)CC1
    1 | 11
- O=C(NCC1CCOC1)c1cnn(-c2ccc(Br)cc2)c1 (stereo not drawn)
    9 | 7
- CCN(CC)c1ccc(C(=O)NNC(=O)C2CCN(C(C)=O)CC2)cc1
    0 | 6
- CCC(=O)N(c1nnc(SCC(=O)c2ccc(CC(N)=O)s2)s1)C1CC1
    -1 | 4
- Cc1cccc(-c2nc3c(NCc4cccc(N(C)C)c4)nccc3[nH]2)c1
    -6 | -10
- O=C(O)c1ccc(CSc2nc(Cl)cc(N3CCN(c4ccccc4Cl)CC3)n2)cc1
    -7 | -13
- O=C(CCC1CCCC1)N1CCCN(c2nc3ccccc3nc2-c2ccccc2)CC1
    4 | 2
- c1ccc2c(c1)ncn2CN1CCCCC1
    11 | 8
- COC(=O)c1ccc2c(=O)n(CC(c3ccco3)N(C)C)c(=O)[nH]c2c1 (stereo not drawn)
    7 | 5
- Fc1ccccc1N1CCN(C2CCCN(Cc3ccc4c(c3)CCO4)C2)CC1 (stereo not drawn)
    12 | 1
- COc1ccc(CCNC(=O)CSc2ccc(NC(=O)c3ccccc3)nn2)cc1
    4 | 6
- COc1ccc(C=Nn2cnc3sc4c(c3c2=O)CCCC4)cc1
    -1 | -3
- O=C(Cc1ccc(F)cc1)Nc1c(-c2ccc(Cl)cc2)nc2ccccn12
    -9 | 2
- C=CCCC(=O)N1CCC(c2nc(-c3ccccc3F)no2)CC1
    2 | -2
- Cc1oc(-c2ccccc2Cl)nc1CN(C)Cc1ccccc1
    1 | -13
- CCc1nnc(CNC(=O)C2CC(=O)N(CC(C)C)C2)s1 (stereo not drawn)
    8 | -3
- CCN=c1scc(-c2ccc(Br)s2)n1N=C1CCCCC1
    2 | 2
- CCc1sc(C(=O)NCc2n[nH]c(C)n2)cc1C
    -7 | -8

Copied from the list.
Under NPYLR7 agonist max-min, `O=C(Cc1ccc(F)cc1)Nc1c(-c2ccc(Cl)cc2)nc2ccccn12` reads 2
Under NPYLR7 agonist, `O=C(Nc1cccc(Br)c1)Nc1ccc(N2CCCC2)c(C(=O)NC2CC2)c1` reads 0
Under NPYLR7 agonist, `COc1ccc(C=Nn2cnc3sc4c(c3c2=O)CCCC4)cc1` reads -1
Under NPYLR7 agonist max-min, `COc1ccccc1CCNC(=O)c1ccccc1N1CCC(NC(=O)C2CCC2)CC1` reads 11
Under NPYLR7 agonist, `Cc1cc(Cl)ccc1N=Cc1nc(-c2ccccc2)oc1O` reads -5

Profiles, quoted from the list. Order of screens: NPYLR7 agonist, NPYLR7 agonist max-min
CCc1sc(C(=O)NCc2n[nH]c(C)n2)cc1C as listed: -7, -8
O=C(Nc1cccc(Br)c1)Nc1ccc(N2CCCC2)c(C(=O)NC2CC2)c1 as listed: 0, 12
c1ccc2c(c1)ncn2CN1CCCCC1 as listed: 11, 8
CCN=c1scc(-c2ccc(Br)s2)n1N=C1CCCCC1 as listed: 2, 2
Cc1oc(-c2ccccc2Cl)nc1CN(C)Cc1ccccc1 as listed: 1, -13

Entries above that have a furan ring, fused or not, in the order listed:
Order of results: NPYLR7 agonist | NPYLR7 agonist max-min
- O=C(NCc1cccc(COCc2ccco2)c1)c1ccccc1
    9 | 4
- c1ccc2oc(COc3ccc4c(C5CC5)noc4n3)cc2c1
    3 | 0
- O=C(N=Nc1c(O)[nH]c2ccccc12)c1ccco1
    3 | 11
- COC(=O)c1ccc2c(=O)n(CC(c3ccco3)N(C)C)c(=O)[nH]c2c1 (stereo not drawn)
    7 | 5

(cont.)
Order of results: NPYLR7 agonist | NPYLR7 agonist max-min
- O=C(NCCS(=O)(=O)N1CCCC1)c1ccccc1C1CCNC1 (stereo not drawn)
    1 | 5
- CCCCN(C)S(=O)(=O)c1ccc(C(=O)N=c2sc(C(=O)OCC)c(C)n2C)cc1
    0 | 5
- CN(CC(=O)NC1CCCC1)Cc1ccc(Cl)s1
    7 | 1
- CCc1ccc(/C=N\Nc2ncnc3nc[nH]c23)cc1
    -1 | -4
- Cc1cc2cc(C(=O)NCCSCc3nc[nH]c3C)ccc2o1
    3 | -6
- COc1ccc2cc(CN3CCN(Cc4ccncc4)CC3)c(=O)[nH]c2c1
    23 | 10
- C=CCOc1cccc(C(=O)N2CCCC(C(=O)c3ccccc3OC)C2)c1 (stereo not drawn)
    2 | 4
- c1ccc(Cc2nc(-c3cn4ccsc4n3)n[nH]2)cc1
    14 | 0
- COc1ccc(C(=O)NC2CCC(NC(=O)[C@H]3CCCN3C(=O)c3cccc(F)c3)CC2)cc1 (stereo partly drawn)
    2 | 11
- Cc1oc(-c2ccc(F)cc2F)nc1CN(C)C1CCOC1 (stereo not drawn)
    6 | -2
- CCc1cc(=O)n(CC(=O)Nc2ccccc2OC)c(-n2nc(C)cc2C)n1
    5 | 4
- O=C(NC1CCCC1)C1(O)Cc2ccccc2C1
    1 | 2
- Cc1nc2nc(N)nn2c(C)c1CC(=O)NC1CCC(C)CC1 (stereo not drawn)
    13 | 8
- COc1ccccc1C1(CC(=O)N2CCN(Cc3cccc(F)c3)CC2)CC(=O)N(C)C1=O (stereo not drawn)
    5 | 1
- CCOCCn1c(SCC(C)=O)nc2c1c(=O)[nH]c(=O)n2C
    -8 | -10
- Cc1cccn2c(=O)c3cc(C(=O)N(C)CCC#N)n(C)c3nc12
    7 | 11

The list is partial. The share of hits here may be higher or lower than overall.
